Vaccinia stage – blocks a specific stage of Vaccinia orthopoxvirus infection, primary screen, cell-based, single point | activity change (mCherry), % (no concentration beside the values) | Vaccinia-infected cells, mCherry/Venus stage reporter fluorescence; stronger effect = lower value; some inactives read as strong as hits | actives 0.01% (n = 89,000);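 active = mCherry past -33% and 40 or more points under the early reporter, replicates agreeing; inconclusive = past -33% without that gap or agreement; tested in A549 cells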;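 note: scaled between vehicle wells and reference inhibitor wells; 23 nL library stock went into each well; one replicate is shown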
Vaccinia stage Venus – second read-out of Vaccinia stage, no call of its own (marks repeat the call); activity change (Venus), %; measured here: Venus reporter, other viral stage;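 negative = less Venus signal; first of two replicates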
The depositor's hits bear a star; ? = inconclusive; nt = not tested or not shown. Not all compounds are listed; the hit share may differ from the screen's.

Results follow in this order: Vaccinia stage | Vaccinia stage Venus
1) CC(C)NC(=O)N(C)C[C@H]1Oc2ccc(NS(C)(=O)=O)cc2C(=O)N([C@H](C)CO)C[C@@H]1C
→ 5 | 8
2) CC(C)NC(=O)N[C@@H]1C=C[C@@H](CC(=O)NCCN2CCCC2)O[C@@H]1CO
→ -3 | -1
3) C[C@@H]1CN([C@@H](C)CO)C(=O)c2cc(NS(=O)(=O)c3ccc(Cl)cc3)ccc2O[C@@H](C)CCCCO[C@H]1CN(C)C(=O)Nc1cccc2ccccc12
→ 11 | 13
4) COc1cccc(-c2cnc3c(c2)C(=O)N([C@H](C)CO)C[C@H](C)[C@H](CN(C)C(=O)NC2CCCC2)O3)c1
→ 18 | 7
5) COc1ccc([Si](C)(C)[C@H]2[C@H](CCO)O[C@@]3(C(=O)N(C)c4ccccc43)[C@@H]2C)cc1
→ ? | nt
6) C[C@@H]1CN([C@@H](C)CO)C(=O)c2cc(NC(=O)NC3CCCCC3)ccc2O[C@@H]1CN(C)Cc1ccccc1
→ -13 | 1
7) C[C@H](CO)N1C[C@H](C)[C@H](CN(C)C(=O)Nc2ccc(F)cc2)Oc2ccc(NS(=O)(=O)c3cccs3)cc2CC1=O
→ 15 | 18
8) CC(C)C#Cc1ccc([C@H]2[C@@H](CO)N(C(=O)c3ccccn3)[C@H]2C#N)cc1
→ ? | nt
9) C[C@H](O)C#Cc1ccc2c(c1)O[C@H](CN(C)C(=O)C1CCCCC1)[C@@H](C)CN([C@H](C)CO)S2(=O)=O
→ -10 | -11
10) COc1ccc2c3c(n(C)c2c1)[C@H](CO)N(CC1CCCCC1)CC31CCN(Cc2nccs2)CC1
→ -20 | -18
11) CC(C)(C)[C@H]1C=C(C(=O)NCc2ccccc2)O[C@@H](OCc2ccc(CO)cc2)C1
→ 0 | -10
12) C[C@@H]1CN([C@@H](C)CO)C(=O)c2cccc(NC(=O)c3ccc(-c4nccs4)cc3)c2O[C@@H]1CN(C)CC1CCCCC1
→ -21 | -11
13) OC[C@H]1[C@@H](c2ccc(C#Cc3ccccc3)cc2)[C@H]2CN(Cc3cncnc3)CCCCN21
→ ? | nt
14) C[C@@H]1CN([C@@H](C)CO)C(=O)c2cccc(NS(=O)(=O)c3ccc(F)cc3)c2O[C@@H]1CN(C)C
→ 28 | 12
15) CN1C(=O)c2cc(NS(=O)(=O)c3ccccc3Cl)ccc2OC[C@@H]2O[C@@H](CC(=O)O)CC[C@H]21
→ -3 | 1
16) CNC[C@@H]1Oc2cc(-c3ccc(OC)cc3)ccc2S(=O)(=O)N([C@H](C)CO)C[C@H]1C
→ -10 | -8
17) C/C=C/c1ccc([C@@H]2[C@@H](CNC(=O)CC3CC3)N(C(=O)CC)[C@H]2CO)cc1
→ 9 | 11
18) C[C@@H]1CN([C@@H](C)CO)C(=O)c2cc(C3=CCCCC3)cnc2O[C@H]1CN(C)Cc1ccccn1
→ -24 | -22
19) CCC(=O)N(C)C[C@H]1Oc2cc(/C=C/c3ccccc3)ccc2S(=O)(=O)N([C@@H](C)CO)C[C@H]1C
→ -29 | -30
20) C[C@@H]1CN([C@@H](C)CO)C(=O)c2cccc(NC(=O)Nc3ccc(C(F)(F)F)cc3)c2O[C@H]1CN(C)Cc1ccc(C(=O)Nc2ccccc2N)cc1
→ 7 | 11
21) CCCNC(=O)C[C@@H]1C[C@H]2c3cc(NC(=O)NC4CCCCC4)ccc3O[C@H]2[C@@H](CO)O1
→ -2 | 3
22) C[C@@H]1CCCCO[C@@H](CN(C)C(=O)Nc2ccccc2)[C@@H](C)CN([C@@H](C)CO)C(=O)c2cc(NS(=O)(=O)c3ccccc3)ccc2O1
→ -11 | -4
23) Cc1noc(C)c1S(=O)(=O)N(C)C[C@H]1Oc2ccc(NS(C)(=O)=O)cc2C(=O)N([C@@H](C)CO)C[C@H]1C
→ -1 | 1
24) C[C@@H]1CN([C@@H](C)CO)C(=O)c2cc(NS(C)(=O)=O)ccc2O[C@@H](C)CCCCO[C@@H]1CN(C)S(=O)(=O)c1ccc(F)cc1
→ 12 | 7
25) O=C(NC1CCCC1)[C@H]1[C@H](CO)[C@H]2Cn3c(ccc(-c4ccccc4)c3=O)[C@@H]1N2
→ 2 | 8
26) C[C@H]1CN([C@@H](C)CO)C(=O)c2cc(NC(=O)Nc3ccc(F)cc3)ccc2O[C@@H]1CN(C)Cc1ccccc1
→ 2 | 4
27) COc1ccc(S(=O)(=O)Nc2cccc3c2O[C@@H](CN(C)C(=O)Nc2ccccc2)[C@H](C)CN([C@@H](C)CO)C3=O)cc1
→ 2 | -5
28) C[C@@H]1CN([C@@H](C)CO)C(=O)c2cc(NS(=O)(=O)c3cn(C)cn3)ccc2O[C@H]1CN(C)C(=O)Nc1ccc(C(F)(F)F)cc1
→ 30 | 14
29) COc1cccc(NC(=O)N2CC(=O)N3[C@@H](CO)[C@@H](c4ccc(C#CC5CCCCC5)cc4)[C@@H]3C2)c1
→ -21 | -26
30) CCC(=O)N[C@H]1C=C[C@H](CC(=O)OC)O[C@H]1CO
→ 10 | 8
31) O=C(C[C@H]1C=C[C@H](NC(=O)Nc2cc(F)ccc2F)[C@@H](CO)O1)Nc1ccccc1
→ -15 | 0
32) CC=Cc1ccc2n(c1=O)C[C@@H]1[C@@H](CO)[C@H](C(=O)Nc3ccc(-c4ccccc4)cc3)N(C(=O)CC)[C@H]21 (mixture of isomers)
→ -18 | -9
33) N#C[C@@H]1[C@H](c2ccccc2-c2cccc(F)c2)[C@H](CO)N1C(=O)C1CCOCC1
→ 8 | 4
34) CC(C)C#Cc1ccc2c(c1)O[C@@H](CN(C)C(=O)c1cccnc1)[C@H](C)CN([C@H](C)CO)S2(=O)=O
→ 19 | 9
35) CC=Cc1ccc2n(c1=O)C[C@@H]1[C@@H](CO)[C@H](C(=O)N3CCCCC3)N(Cc3ccccn3)[C@H]21 (mixture of isomers)
→ -3 | 17
36) CCCC#Cc1ccc2c(c1)O[C@H](CN(C)C(=O)NC(C)C)[C@@H](C)CN([C@@H](C)CO)S2(=O)=O
→ -18 | -15
37) CCCNC(=O)N(C)C[C@H]1Oc2cc(C#Cc3cccc(F)c3)ccc2S(=O)(=O)N([C@@H](C)CO)C[C@H]1C
→ ? | nt
38) CO[C@@H]1CN(C)C(=O)c2ccc(NC(=O)c3ccc(F)cc3)cc2OC[C@@H](C)N(C(=O)c2ccc(F)cc2)C[C@@H]1C
→ -5 | 3
39) C[C@@H]1CN([C@@H](C)CO)C(=O)Cc2cc(NC(=O)C3CCCCC3)ccc2O[C@@H]1CN(C)S(C)(=O)=O
→ -1 | -1
40) C[C@@H]1CN([C@H](C)CO)C(=O)c2cc(/C=C/c3ccccc3)cnc2O[C@H]1CN(C)C(=O)Cc1ccccn1
→ -4 | -1

Brought forward from above: 6 entries, followed by the next part.
No. | mol | Vaccinia stage | Vaccinia stage Venus
35 | CC=Cc1ccc2n(c1=O)C[C@@H]1[C@@H](CO)[C@H](C(=O)N3CCCCC3)N(Cc3ccccn3)[C@H]21 (mixture of isomers) | -3 | 17
36 | CCCC#Cc1ccc2c(c1)O[C@H](CN(C)C(=O)NC(C)C)[C@@H](C)CN([C@@H](C)CO)S2(=O)=O | -18 | -15
37 | CCCNC(=O)N(C)C[C@H]1Oc2cc(C#Cc3cccc(F)c3)ccc2S(=O)(=O)N([C@@H](C)CO)C[C@H]1C | ? | nt
38 | CO[C@@H]1CN(C)C(=O)c2ccc(NC(=O)c3ccc(F)cc3)cc2OC[C@@H](C)N(C(=O)c2ccc(F)cc2)C[C@@H]1C | -5 | 3
39 | C[C@@H]1CN([C@@H](C)CO)C(=O)Cc2cc(NC(=O)C3CCCCC3)ccc2O[C@@H]1CN(C)S(C)(=O)=O | -1 | -1
40 | C[C@@H]1CN([C@H](C)CO)C(=O)c2cc(/C=C/c3ccccc3)cnc2O[C@H]1CN(C)C(=O)Cc1ccccn1 | -4 | -1
41 | C/C=C/c1cnc2c(c1)C(=O)N([C@@H](C)CO)C[C@@H](C)[C@@H](CN(C)C(=O)C1CCOCC1)O2 | 3 | 5
42 | C[C@H](CO)N1C[C@H](C)[C@@H](CN(C)Cc2ccc3c(c2)OCO3)OCCCC[C@H](C)Oc2ccc(NS(=O)(=O)c3ccc(Cl)cc3)cc2C1=O | ? | nt
43 | C[C@H](CO)N1C[C@H](C)[C@H](CN(C)C(=O)Nc2ccc(F)cc2)Oc2c(NC(=O)c3ccncc3)cccc2C1=O | 0 | 4
44 | C[C@@H]1CN([C@H](C)CO)C(=O)Cc2cc(NS(=O)(=O)c3cn(C)cn3)ccc2O[C@H]1CN(C)Cc1ccc(C(=O)O)cc1 | 17 | 15
45 | O=C(C[C@H]1CC[C@@H]2[C@H](COC[C@@H](O)CN2S(=O)(=O)c2ccccc2Cl)O1)NCc1ccccc1Cl | 19 | 2
46 | C[C@@H]1CN([C@@H](C)CO)C(=O)c2cc(NC(=O)Cc3ccccc3)ccc2O[C@H]1CN(C)Cc1ccc(C(=O)Nc2ccccc2N)cc1 | -8 | -3
47 | Cc1noc(C)c1NC(=O)Nc1ccc2c(c1)CC(=O)N([C@@H](C)CO)C[C@@H](C)[C@H](CN(C)Cc1ccccc1)O2 | -9 | -7
48 | COc1cccc(CN2CCCCN3[C@H](C2)[C@H](c2ccc(-c4cccnc4)cc2)[C@@H]3CO)c1 | -6 | -6
49 | COc1ccc(-c2cnc3c(c2)C(=O)N([C@@H](C)CO)C[C@H](C)[C@@H](CN(C)Cc2cccnc2)O3)cc1 | 14 | -5
50 | C[C@H]1CCCCO[C@@H](CN(C)S(=O)(=O)c2ccccc2)[C@@H](C)CN([C@@H](C)CO)C(=O)c2cc(NC(=O)c3ccccc3)ccc2O1 | -22 | -22
51 | COc1ccc(S(=O)(=O)N(C)C[C@H]2OCCCC[C@@H](C)Oc3ccc(NC(=O)Nc4ccc(C(F)(F)F)cc4)cc3C(=O)N([C@H](C)CO)C[C@H]2C)cc1 | -3 | 6
52 | Cc1noc(C)c1S(=O)(=O)N(C)C[C@H]1OCc2ccccc2-c2c(n(C)c3ccccc23)C(=O)N([C@H](C)CO)C[C@H]1C | ? | nt
53 | CCC(=O)N1C[C@@H](C)[C@@H](OC)CN(C)C(=O)c2ccc(NC(=O)c3ccccc3)cc2OC[C@@H]1C | -7 | -8
54 | C[C@@H](NC(=O)C[C@@H]1CC[C@@H](NC(=O)c2cccnc2)[C@@H](CO)O1)c1ccccc1 | 0 | -6
55 | C[C@@H]1CCCCO[C@@H](CN(C)Cc2ccc(Cl)c(Cl)c2)[C@@H](C)CN([C@@H](C)CO)C(=O)c2cc(NS(=O)(=O)c3cn(C)cn3)ccc2O1 | -15 | -14
56 | C[C@@H]1CN([C@@H](C)CO)C(=O)Cc2cc(NS(=O)(=O)c3cn(C)cn3)ccc2O[C@H]1CN(C)C(=O)Nc1ccccc1 | 13 | 18
57 | C[C@@H]1CN([C@@H](C)CO)C(=O)Cc2cc(NC(=O)Nc3cccc4ccccc34)ccc2O[C@H]1CN(C)C(=O)Nc1ccc2c(c1)OCO2 | 5 | 6
58 | COc1ccc(NC(=O)Nc2ccc3c(c2)C(=O)N([C@@H](C)CO)C[C@@H](C)[C@H](CN(C)Cc2ccc4c(c2)OCO4)OCCCC[C@H](C)O3)cc1 | ? | nt
59 | C[C@H](CO)N1C[C@H](C)[C@H](CN(C)Cc2ccc(F)cc2)Oc2ncc(-c3cccc(C(F)(F)F)c3)cc2C1=O | ? | nt
60 | C[C@H]1CCCCO[C@@H](CN(C)C(=O)NC2CCCCC2)[C@@H](C)CN([C@@H](C)CO)C(=O)c2cc(NC(=O)NC3CCCCC3)ccc2O1 | -18 | -8
61 | CCC(=O)N1CC2(CN(C(=O)CN3CCOCC3)C2)c2c([nH]c3cc(OC)ccc23)[C@H]1CO | -3 | -10
62 | O=C([C@H]1[C@H](CO)[C@H]2Cn3c(ccc(-c4ccccc4)c3=O)[C@@H]1N2CCC(F)(F)F)N1CCCCC1 | -4 | 1
63 | COc1ccc(NC(=O)N(C)C[C@@H]2OCCCC[C@@H](C)Oc3ccc(NC(=O)CCCN(C)C)cc3C(=O)N([C@H](C)CO)C[C@H]2C)cc1 | 17 | 11

Some values from the entries so far:
`COc1ccc(NC(=O)N(C)C[C@@H]2OCCCC[C@@H](C)Oc3ccc(NC(=O)CCCN(C)C)cc3C(=O)N([C@H](C)CO)C[C@H]2C)cc1` | Vaccinia stage Venus: 11
`O=C([C@H]1[C@H](CO)[C@H]2Cn3c(ccc(-c4ccccc4)c3=O)[C@@H]1N2CCC(F)(F)F)N1CCCCC1` | Vaccinia stage Venus: 1

Compound activity from PubChem BioAssay.
